miR-21 FLuc: miR-21 reporter, rising signal. Potency, µM (titrated, usually from 38.3 µM), inactives show top-dose reporter change, positive = more light. 340,000 tested, under 10 active. HeLa miR-21 FLuc reporter, luciferase, 48 h. AID 2288; active = well fitted rising curve with a large enough effect; inconclusive = small, poorly fitted or top-dose-only effect; inactive = no such curve, though single readings can be large or run the other way;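 also: % of control where 0% means no effect; miR-21 action dims this reporter so a rising signal means less miR-21 action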
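Compounds were titrated across several concentrations (up to approximately 40 uM) and incubated 48 hours with HeLa miR-21-FLuc reporter cells (miR-21 target sequence downstream of FLuc, endogenous miR-21). Readout was firefly luciferase luminescence after lytic detection reagent.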
Rango release inh: inhibition of RanGTP-driven Rango-importin beta dissociation; O95149+P62826; Biochemical FRET Rango-importin beta, RanGTP-induced dissociation; Potency, µM (series often up to 46.1 µM), for the others: top-dose activity change, negative = inhibition; actives 0.071% (n = 340,000); AID 540253; active means falling FRET ratio curve, often poorly fitted, with flat reads before Ran was added; inconclusive means other falling curves, or compound fluorescence or quenching; inactive means flat or rising ratio curve;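 also: potency is read from the fitted curve at half-maximal effect; % of control where 0% means no effect; nearly all actives have a fitted effect of over 45% in size; -100% = wells without RanGTP and RCC1; the record marks most hits as doubtful in a second field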
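Quantitative HTS using a FRET biosensor: 0.1 uM Rango, 0.25 uM importin beta, 0.6 uM Ran, 2 mM GTP, 0.2 uM RCC1 final, PBS with DTT, Tween-20 and BSA. Post-read taken 45 min after Ran addition.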
GLA inh pH 4.5: inhibitors of human alpha-galactosidase A at pH 4.5; purified enzyme, 4-MU-alpha-Gal fluorescence, pH 4.5; P06280; activity change, negative = inhibition, % at 105 µM; 230,000 tested, under 10 active; AID 1467; inconclusive = small, poorly fitted or top-dose-only inhibition, or a rising curve; inactive = flat fitted curve, though single readings scatter; no compound was filed as active;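 also: 0% = full activity with enzyme and -100% = basal without enzyme; dose as in the result columns while the protocol names 77 µM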
Rango complex inh: Rango-importin beta binding inhibition. Q14974. Rango CFP/YFP FRET sensor + importin beta, 45 min. Potency, µM (doses to about 92.2 µM), for inactives: at the highest dose inhibition of complex formation. actives 0.031% (n = 340,000); active = rising FRET ratio curve, often small or poorly fitted; inconclusive = mostly compound fluorescence or quenching in the first reads; inactive = flat curves in all reads;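 also: potency is read from the fitted curve at half-maximal effect; 0% = DMSO wells and 100% = buffer wells lacking importin beta; nearly all actives have a fitted effect of over 15% in size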
Target sequence (Q14974 whole entry, looked up): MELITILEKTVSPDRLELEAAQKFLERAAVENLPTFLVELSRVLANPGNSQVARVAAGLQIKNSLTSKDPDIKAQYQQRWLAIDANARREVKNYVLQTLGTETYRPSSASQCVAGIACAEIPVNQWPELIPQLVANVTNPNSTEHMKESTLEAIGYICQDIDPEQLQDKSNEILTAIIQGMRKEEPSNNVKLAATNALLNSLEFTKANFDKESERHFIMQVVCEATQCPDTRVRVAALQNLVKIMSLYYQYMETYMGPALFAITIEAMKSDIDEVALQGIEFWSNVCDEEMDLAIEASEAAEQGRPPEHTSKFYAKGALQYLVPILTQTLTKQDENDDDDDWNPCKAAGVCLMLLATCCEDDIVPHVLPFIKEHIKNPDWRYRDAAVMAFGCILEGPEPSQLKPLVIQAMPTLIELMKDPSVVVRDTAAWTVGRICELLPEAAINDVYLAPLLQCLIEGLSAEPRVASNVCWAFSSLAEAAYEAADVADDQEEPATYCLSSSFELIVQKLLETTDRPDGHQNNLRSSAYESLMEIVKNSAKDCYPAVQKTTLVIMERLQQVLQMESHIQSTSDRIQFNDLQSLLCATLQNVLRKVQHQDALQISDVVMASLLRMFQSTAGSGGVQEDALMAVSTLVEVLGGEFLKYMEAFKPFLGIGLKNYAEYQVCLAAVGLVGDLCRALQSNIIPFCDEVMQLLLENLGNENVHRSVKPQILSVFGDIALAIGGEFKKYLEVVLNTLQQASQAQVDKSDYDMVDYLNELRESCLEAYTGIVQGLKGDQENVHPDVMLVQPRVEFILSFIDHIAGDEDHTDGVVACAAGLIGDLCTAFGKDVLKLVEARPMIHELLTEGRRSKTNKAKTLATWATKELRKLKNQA
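Inhibition scored from the CFP 486 nm/YFP 530 nm FRET ratio 45 min after adding 0.125 microM importin beta to 50 nM Rango biosensor preincubated 5 min with compound (room temperature, PBS with DTT, Tween-20, BSA). No-importin wells as positive control.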
* marks the source's active call; other numbers are inactive results; ? = inconclusive; nt = not tested or not shown. These rows are one share of the data (hit frequency here may not be typical).

No. | miR-21 FLuc | Rango release inh | GLA inh pH 4.5 | Rango complex inh | compound
1 | -10.7% | -12.1% | nt | ? | CC1(C)CC(NC(=O)c2ccc(-c3ccc([N+](=O)[O-])cc3)o2)CC(C)(C)N1
2 | -5.8% | -3.5% | 0.7 | 2.2% | CCc1nnc(NC(=O)CSc2nccn2-c2cccc(C)c2)s1
3 | -8.1% | 24.1% | 0.8 | -2.0% | Cc1nc(C(F)(F)F)ccc1C(=O)Nc1ccccc1F
4 | 0.2% | -5.7% | 9.3 | -7.7% | COc1cc(-c2nnc(SCC(=O)NC3CCS(=O)(=O)C3)o2)cc(OC)c1OC (configuration not stated)
5 | 6.4% | -0.2% | 10.0 | -3.3% | O=Cc1ccccc1OCCOc1ccc([N+](=O)[O-])cc1
6 | -1.3% | 2.6% | nt | 1.3% | Cc1cc(C)cc(N(CC(=O)NCc2ccc(F)cc2)C(=O)CCC(=O)Nc2ccccn2)c1
7 | -44.7% | 3.5% | nt | 2.0% | Cc1ccc2c(COC(=O)c3ccccc3F)cc(=O)oc2c1
8 | -5.8% | 0.5% | 5.3 | -1.1% | O=C(NCc1ccccc1Cl)c1ccccc1CCc1ccccc1
9 | nt | 9.7% | nt | 1.1% | O=C(CSc1n[nH]c(=O)[nH]c1=O)Nc1ccc(SC(F)F)cc1
10 | -0.7% | 2.7% | 11.5 | -3.6% | COc1c(Cl)cc(Cl)cc1C(=O)n1nc(C)cc1C
11 | -1.5% | -1.8% | -7.3 | -0.2% | CCOc1cc(CNn2nnnc2N)ccc1OCC(=O)NC(C)(C)C
12 | -7.0% | -1.5% | nt | 2.1% | Cc1ccc(SCC(=O)NNC(=O)c2ccccc2)c(C)c1
13 | -73.5% | -19.2% | nt | ? | CCc1c(C)sc(NC(=O)c2ccco2)c1C#N
14 | -44.4% | -0.3% | -7.8 | -1.1% | O=C(CCNC(=O)c1ccccc1Cl)Nc1nc2ccccc2s1
15 | nt | 9.5% | nt | 2.2% | O=C(NCc1nnnn1-c1ccc(F)c(F)c1)c1ccc2ccccc2c1
16 | 20.6% | -7.4% | 5.6 | 2.1% | Fc1cc(F)cc(NC(=S)N2CCN(c3ncccn3)CC2)c1
17 | 0.3% | ? | -2.8 | -3.9% | CNC(=O)CN(C1CCCCC1)S(=O)(=O)c1ccc(F)cc1
18 | -3.3% | 0.5% | -17.1 | -0.3% | Cc1cc(C(=O)OCC(=O)N2c3ccccc3NC(=O)C2(C)C)c(C)n1-c1ccccc1
19 | 7.5% | 12.7% | 0.0 | 1.1% | O=C(CSc1nc2ccccc2[nH]1)Nc1cc(C(F)(F)F)ccc1N1CCOCC1
20 | 1.3% | -0.9% | 4.4 | -2.6% | CCCCOP(=O)(c1ccc(N(C)C)cc1)C(O)c1ccccc1F (configuration not stated)
21 | nt | ? | nt | ? | O=C(c1cnn(C(=O)c2ccco2)c1)c1cc(Cl)cc(Cl)c1O
22 | 7.0% | -0.3% | -1.0 | 1.1% | COc1ccccc1N1CCN(C(=O)c2ccc(NS(=O)(=O)c3ccc(C)cc3)cc2)CC1
23 | -17.8% | -6.6% | -0.3 | 2.7% | Cc1cc(C)nc(SCc2nnc(SCc3ccccc3Cl)o2)n1
24 | -2.9% | 7.9% | nt | -1.9% | CC(=O)Nc1ccc(S(=O)(=O)N2CCN(S(=O)(=O)N3CCC(C)CC3)CC2)cc1
25 | -4.6% | -14.4% | -0.9 | -1.9% | COC(=O)c1c(O)cc(C(C)(C)C)n(-c2ccc(F)cc2)c1=O
26 | -6.8% | ? | -10.5 | ? | O=C(c1ccccc1)c1sc(N2CCOCC2)nc1-c1ccccc1
27 | 9.6% | 31.4% | -8.1 | -5.0% | Cc1cnc(NC(=O)c2cc3ccccc3o2)s1
28 | -1.8% | 13.4% | 0.5 | 4.4% | CCOc1ccc(-c2noc(CCC(=O)NC)n2)cc1OCC
29 | 21.0% | -4.4% | nt | -1.6% | COc1ccc(CCC(=O)NCCS(=O)(=O)N2CCN(c3ccc(OC)cc3)CC2)cc1
30 | 2.6% | 7.9% | nt | -1.1% | NS(=O)(=O)c1ccc(Nc2ccc3cc(S(=O)(=O)N4CCCCC4)ccc3n2)cc1
31 | 6.5% | 8.5% | nt | 2.5% | O=C(CSc1nnc(NC(=O)C2CC2)s1)Nc1ccccc1C(F)(F)F
32 | 1.8% | 4.6% | nt | 1.6% | COc1ccc(Cl)cc1S(=O)(=O)NCc1nc2nc(C)cc(C)n2n1
33 | -1.2% | 51.6% | -9.0 | -1.4% | COc1ccc(CC(=O)NCc2ccc3c(c2)cc(C)n3C)cc1
34 | -1.9% | 2.8% | nt | -1.9% | COc1cc(OC)cc(C(=O)NN2CCOCC2)c1
35 | 1.3% | -11.5% | 1.8 | 5.9% | O=C1OCCC/C1=C\c1ccc2c(c1)OCO2
36 | 9.8% | -3.0% | nt | ? | CN(C)/C=C/C(=O)c1ccc2noc(-c3ccccc3)c2c1
37 | 21.5% | 5.3% | -3.1 | -0.3% | COc1ccc(-c2nc3ccccc3s2)cc1O
38 | -2.8% | 15.4% | -3.8 | -2.9% | CN(C)CCNCc1ccc(OC2CCCC2)cc1
39 | -2.8% | -9.5% | 10.1 | 0.5% | O=CN1CC(=O)N(c2ccccc2)c2c([nH]c3ccccc23)C1
40 | -13.2% | -15.4% | 15.7 | -1.7% | CCC(=O)Nc1ccc(-c2nnc(SCc3ccc(C(=O)Nc4nccs4)cc3)n2CC)cc1
41 | -14.1% | -3.6% | 14.9 | -0.2% | O=C(Nc1ccc(-c2nc3ccccc3o2)cc1)c1ccc2c(c1)OCO2
42 | -37.9% | -5.3% | -2.4 | ? | COC(=O)c1sccc1NC(=O)COc1ccc(C)cc1
43 | -10.7% | 2.9% | nt | -5.1% | COc1ccccc1CNC(=O)CCc1ccccc1
44 | -7.2% | -7.8% | -2.7 | 1.8% | CCOC(=O)C1=C(C)N(C2CCCCC2)C(=O)C1
45 | -0.5% | -3.5% | 4.8 | 0.5% | Cc1ccc(C(=O)N2CC(C(=O)O)C2)cc1
46 | nt | 28.7% | nt | ? | Cc1cc(O)cc2c1C1CCC3(C)C(O)CCC3C1C=C2 (configuration not stated)
47 | nt | 9.6% | nt | 5.5% | Cc1cccc(C)c1NC(=O)CNC(=O)c1ccc(NS(=O)(=O)c2ccc3[nH]c(=O)[nH]c3c2)cc1
48 | 1.1% | -24.0% | -3.7 | ? | Oc1ccc2ccccc2c1C=NC12CN3CCN(CN(C3)C1)C2
49 | -3.2% | -5.5% | nt | -3.5% | CC(=O)C1=C(O)C(=O)OC1c1ccc(C)cc1 (configuration not stated)
50 | -41.8% | 1.1% | -7.5 | 0.8% | Cc1ccc(O)c(N=Cc2cccs2)c1
51 | -8.4% | 4.9% | nt | -1.8% | CCOc1ccc(CCNC(=O)CS(=O)Cc2nc(-c3ccc(OC)cc3)oc2C)cc1OCC (configuration not stated)
52 | nt | -1.7% | nt | 0.0% | CN(C)C(=O)CSc1ccc(S(=O)(=O)N2CCOCC2)cn1
53 | -4.8% | -4.8% | nt | 0.0% | COc1ccc(CNCc2cccc3ccccc23)cc1
54 | 5.2% | -7.0% | 11.8 | -3.2% | Cc1ccc(S(=O)(=O)N/N=C/c2c[nH]c3ccccc23)cc1
55 | -4.2% | 5.0% | -0.3 | -0.9% | Cc1cn(CC2COC(C)(C)O2)c(=O)[nH]c1=O (configuration not stated)
56 | -25.3% | -2.3% | -0.1 | -0.4% | CC(C)(C)c1csc(CS(=O)(=O)c2ccccn2)n1
57 | 1.8% | 1.1% | -7.1 | -4.4% | Cc1ccc(S(=O)(=O)N2CCC(C(=O)NCCN3CCCCCC3)CC2)cc1
58 | 0.0% | -11.4% | -3.6 | 1.3% | CCNC(=O)COC(=O)CNC(=O)c1cc(Cl)cc([N+](=O)[O-])c1
59 | -7.5% | 1.0% | -12.8 | 3.5% | COc1ccc(-c2cc(C(=O)Nc3ccc(S(=O)(=O)Nc4onc(C)c4C)cc3)c3ccccc3n2)cc1
60 | 0.2% | -1.4% | 2.3 | -1.8% | COCCNC(=S)N1CCC(NC(=O)C23CC4CC(CC(C4)C2)C3)CC1

Carrying on:
No. | miR-21 FLuc | Rango release inh | GLA inh pH 4.5 | Rango complex inh | compound
61 | -2.3% | -10.7% | nt | 0.2% | COc1ccc(NC(=O)CSc2ccc3nnc(CCNC(=O)c4ccccc4)n3n2)cc1
62 | -41.4% | 1.1% | -4.8 | 4.4% | CC(/C=N/NC(=O)C(O)c1ccccc1)=C\c1ccccc1 (configuration not stated)
63 | nt | 3.7% | nt | -0.8% | CCOC(=O)C1=CN(Cc2ccco2)S(=O)(=O)N(CC)C1c1cccc(OC)c1 (configuration not stated)
64 | nt | -9.0% | nt | -2.7% | Cc1cc(=O)oc2cc(OCC(=O)NC3(C#N)CCCCC3)c(Cl)cc12
65 | -6.8% | 4.2% | nt | 3.5% | CN1CCN(c2nc(-c3cccc([N+](=O)[O-])c3)nc3ccccc23)CC1
66 | -2.0% | 3.2% | -11.5 | -2.9% | COc1cc(NC(=O)CSCc2cnn(-c3ccccc3)c2-n2cccc2)cc(OC)c1
67 | 0.4% | -10.7% | -3.1 | 0.0% | O=C(O)CCCCCN1C(=O)/C(=C/c2ccncc2)SC1=S
68 | -14.5% | 7.4% | 4.2 | 1.4% | C[C@@H]1CN(Cc2nc(-c3cccs3)no2)C[C@H](C)O1
69 | nt | -0.2% | nt | -0.6% | C[C@]12CC[C@H](O)CC1=CCC1C2CC[C@@]2(C)C1CC[C@@H]2NC(=O)[C@@H](N)Cc1ccccc1 (some centres not stated)
70 | nt | -13.5% | nt | -1.8% | CCOC(=O)[C@H]1[C@H]2COc3ccc(Br)cc3[C@@H]2N2C(=O)c3ccc(F)cc3NC(=O)[C@@]12C
71 | -6.0% | 0.8% | 6.6 | 5.0% | N#CCCN(CCC#N)C(=O)c1ccc(Cl)cc1
72 | nt | 0.7% | nt | 5.1% | O=C1c2ccccc2C(=O)C1C(=O)C1CC1
73 | nt | 0.0% | nt | -2.4% | Cc1ccc(N2CC(C(=O)NCCC3=CCCCC3)CC2=O)cc1 (configuration not stated)
74 | -0.4% | 13.3% | nt | 0.8% | COc1ccc(/C(C)=N/NC(=O)CNC(=O)c2cccnc2)c(OC)c1
75 | nt | -23.2% | nt | 0.3% | CC(=O)c1ccc(S(=O)(=O)N2CCn3cccc3C2C)cc1 (configuration not stated)
76 | 1.6% | 38.8% | 5.1 | 2.4% | O=c1[nH]nc(Cc2ccc(Cl)cc2Cl)c2ccccc12
77 | -3.0% | -13.1% | 0.7 | -2.5% | CNC(=S)NNC(=O)c1cccs1
78 | 8.4% | -3.4% | nt | 0.1% | COc1ccc(NS(=O)(=O)c2cc(C(=O)Nc3ccccc3C(=O)O)ccc2C)cc1
79 | -9.6% | 3.5% | nt | 2.1% | COc1cccc(NC(=O)N2CCCC2C(=O)Nc2cc(C)ccc2OC)c1 (configuration not stated)
80 | -5.1% | -4.0% | -0.5 | -1.3% | Cc1cccc(C)c1NC(=O)COc1ccc2c(C)c(Cc3ccccc3)c(=O)oc2c1C
81 | -3.7% | -1.5% | 14.2 | -1.8% | CCOC(=O)C1CCCN(CCC(=O)Nc2cc(C)ccc2C)C1 (configuration not stated)
82 | nt | 21.0% | nt | -0.4% | CCN(CC)c1ccc(S(=O)(=O)N2CCOCC2)cc1NC(=O)COC(=O)/C=C/c1ccccc1
